Screens: PubChem, Broad Institute
Yeast UUG start = yeast start codon fidelity modulation; AID 602363; hit rate 0.13% among 350,000; activity score, % at 18.7 µM; S. cerevisiae UUG-firefly luciferase reporter, luminescence/redox ratio;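 active = replicate mean at a twofold rise or more, about +100% in these data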;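 note: firefly luciferase made from a UUG start codon reports start codon fidelity; reporter light over untreated wells divided by growth signal over untreated wells; some hits fall short of that in this replicate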
The depositor's hits bear a star. Not all compounds are listed; the hit share may differ from the screen's.

The opening 3 records, to show the layout:
smiles | Yeast UUG start
CN(C)CC#Cc1ccc([C@@H]2[C@H]3CN(C(=O)C4CCC4)CCCCN3[C@H]2CO)cc1 | -5
O=C(C[C@H]1CC[C@@H]2[C@H](COC[C@H](O)CN2C(=O)Nc2ccc(Cl)c(Cl)c2)O1)NCc1ccc(Cl)c(Cl)c1 | -18
CC(=O)N1[C@H](CNC(=O)CN2CCOCC2)[C@H](c2ccccc2)[C@@H]1CO | 11

The listing (from the top)
smiles | Yeast UUG start
CN(C)CC#Cc1ccc([C@@H]2[C@H]3CN(C(=O)C4CCC4)CCCCN3[C@H]2CO)cc1 | -5
O=C(C[C@H]1CC[C@@H]2[C@H](COC[C@H](O)CN2C(=O)Nc2ccc(Cl)c(Cl)c2)O1)NCc1ccc(Cl)c(Cl)c1 | -18
CC(=O)N1[C@H](CNC(=O)CN2CCOCC2)[C@H](c2ccccc2)[C@@H]1CO | 11
O=C(NC1CCC1)[C@@H]1[C@@H](CO)[C@@H]2Cn3c(ccc(-c4ccccc4)c3=O)[C@@H]2N1Cc1ccccn1 | 26
CN1C(=O)c2cc(NC(=O)c3ccc(Cl)cc3)ccc2OC[C@H]2O[C@@H](CC(=O)NCc3cccc(F)c3)CC[C@H]21 | -17
CC(C)(O)C#Cc1ccc([C@H]2[C@@H](CO)N3CCCCN(C(=O)c4ccncc4)C[C@@H]23)cc1 | -11
COc1cccc(C(=O)Nc2ccc3c(c2)C(=O)N(C)C[C@@H](OC)[C@@H](C)CN(C(=O)C2CCCC2)[C@@H](C)CO3)c1 | 8
COc1ccc(C#Cc2ccc([C@H]3[C@@H](CO)N4CCCCN(C(=O)Nc5cccc(F)c5)C[C@H]34)cc2)cc1 | -2
C[C@H](CO)N1C[C@H](C)[C@H](CN(C)C(=O)Nc2ccc(C(F)(F)F)cc2)Oc2ccc(NC(=O)CCN3CCOCC3)cc2C1=O | -3
CCOC(=O)N(C)C[C@@H]1OCc2ccccc2-c2ccccc2C(=O)N([C@H](C)CO)C[C@@H]1C | 0
CCC(=O)Nc1ccc2c(c1)C(=O)N(C)C[C@@H](OC)[C@H](C)CN(C(=O)Cc1cccnc1)[C@H](C)CO2 | -13
CO[C@H]1CN(C)C(=O)c2cc(NC(=O)CC(F)(F)F)ccc2OC[C@H](C)N(S(=O)(=O)c2cn(C)cn2)C[C@@H]1C | -11
C[C@H]1CN([C@@H](C)CO)C(=O)c2cccc(NC(=O)c3ccncc3)c2O[C@@H]1CN(C)S(=O)(=O)c1ccc(Cl)cc1 | -1
C/C=C/c1ccc([C@@H]2[C@H](CO)N3CCCCN(S(=O)(=O)c4ccc(F)cc4)C[C@@H]23)cc1 | 2
C[C@H]1CN([C@@H](C)CO)C(=O)CCCn2nncc2CO[C@@H]1CN(C)C(=O)Nc1ccccc1 | 11
C[C@@H]1CN([C@@H](C)CO)C(=O)Cc2cc(NC(=O)CCC(F)(F)F)ccc2O[C@@H]1CN(C)S(=O)(=O)c1ccccc1 | 4
C[C@H](CO)N1C[C@H](C)[C@H](CN(C)C)Oc2ccc(NS(=O)(=O)c3cn(C)cn3)cc2CC1=O | -10
CO[C@@H]1CN(C)C(=O)c2ccc(NC(=O)c3cc(C)on3)cc2OC[C@H](C)N(CC2CC2)C[C@@H]1C | -13
C[C@@H]1CN([C@@H](C)CO)C(=O)CCCn2cc(nn2)CO[C@@H]1CN(C)S(=O)(=O)c1cn(C)cn1 | -19
CN1c2ccc(Br)cc2[C@@H]2[C@@H](CCN2C(=O)C2CC2)[C@H]1CO | -21
C[C@H](CO)N1C[C@H](C)[C@@H](CN(C)C(=O)Nc2ccccc2)Oc2ccc(NC(=O)Nc3cccc4ccccc34)cc2CC1=O | -9
CCC(=O)N1C[C@H](C)[C@@H](OC)CN(C)C(=O)c2cc(NC(=O)C3CCOCC3)ccc2OC[C@@H]1C | -7
CO[C@H]1CN(C)C(=O)c2cc(NS(C)(=O)=O)ccc2OC[C@H](C)N(C(=O)C2CCCCC2)C[C@H]1C | -4
C[C@H]1CN([C@@H](C)CO)C(=O)c2cccc(NC(=O)c3ccc(-c4nccs4)cc3)c2O[C@H]1CN(C)Cc1ccc2c(c1)OCO2 | 33
CC(C)NC(=O)N1CCCCN2[C@H](C1)[C@H](c1ccc(C#Cc3ccccc3F)cc1)[C@@H]2CO | 6
C[C@H](CO)N1C[C@H](C)[C@H](CN(C)S(=O)(=O)c2ccc(F)cc2)Oc2ccc(NC(=O)NC3CCCCC3)cc2C1=O | 11
COc1ccc(CN(C)C[C@@H]2Oc3ccc(NS(=O)(=O)c4ccc(C)cc4)cc3C(=O)N([C@@H](C)CO)C[C@H]2C)cc1 | 0
CNC[C@@H]1Oc2ccc(NS(=O)(=O)c3ccccc3)cc2C(=O)N([C@H](C)CO)C[C@H]1C | -9
Cc1ccccc1S(=O)(=O)N1C[C@@H](O)COC[C@H]2O[C@H](CC(=O)N3CCC(Cc4ccccc4)CC3)CC[C@@H]21 | 8
C[C@H]1CN([C@@H](C)CO)C(=O)c2cccc(NC(=O)C3CC3)c2O[C@@H]1CN(C)Cc1ccccc1 | -2
COCC(=O)Nc1ccc2c(c1)OC[C@H](C)N(Cc1ccccc1)C[C@H](C)[C@H](OC)CN(C)C2=O | 10
COc1ccc(CN(C)C[C@H]2Oc3ccc(NS(=O)(=O)c4ccc(F)cc4)cc3CC(=O)N([C@@H](C)CO)C[C@H]2C)cc1 | -9
CN1c2ccc(-c3ccc(F)cc3)cc2[C@@H]2[C@@H](CCN2C(=O)Cc2cccnc2)[C@H]1CO | -19
C[C@H](CO)N1C[C@H](C)[C@H](CN(C)C(=O)Nc2ccc3c(c2)OCO3)Oc2ccc(NC(=O)Nc3ccc(C(F)(F)F)cc3)cc2C1=O | -11
COCC(=O)N(C)C[C@@H]1[C@H](c2ccc(-c3cccnc3)cc2)[C@@H](CO)N1C(C)=O | 11
O=C(c1cnccn1)N1CC[C@@H]2[C@H]1c1cc(-c3ccccc3F)ccc1N[C@@H]2CO | -20
O=C(c1ccc(F)cc1)N1CCCCN2[C@H](CO)[C@@H](c3ccc(C#CC4(O)CCCC4)cc3)[C@H]2C1 | -9
C[C@@H]1CN([C@H](C)CO)C(=O)c2cccc(NS(=O)(=O)c3cn(C)cn3)c2O[C@H]1CN(C)Cc1ccncc1 | -15
C[C@@H]1CN([C@H](C)CO)C(=O)c2cc(NC(=O)C3CCCCC3)ccc2O[C@H]1CN(C)S(=O)(=O)c1ccc(F)cc1 | -10
CCCC#Cc1ccc([C@H]2[C@@H](CO)N3CCCCN(S(=O)(=O)Cc4ccccc4)C[C@@H]23)cc1 | 8
CCS(=O)(=O)Nc1ccc2c(c1)C(=O)N(C)C[C@@H](OC)[C@H](C)CN(Cc1nccs1)[C@@H](C)CO2 | -5
CC(=O)N(C[C@H]1N[C@H](CO)[C@H]1c1ccc(-c2ccccc2)cc1)C(C)C | 28
C[C@H](CO)N1C[C@H](C)[C@@H](CN(C)C(=O)NC2CCCCC2)Oc2ccc(NS(=O)(=O)c3ccc(Cl)cc3)cc2CC1=O | 6
CN1C(=O)c2cc(NC(=O)c3cccc(C(F)(F)F)c3)ccc2OC[C@H]2O[C@H](CC(=O)NCCN3CCCC3)CC[C@H]21 | 1
CC(C)NC(=O)Nc1ccc2c(c1)C(=O)N([C@@H](C)CO)C[C@@H](C)[C@H](CN(C)S(=O)(=O)c1ccc(F)cc1)O2 | 7
C[C@@H]1CN([C@H](C)CO)C(=O)Cc2cc(NS(C)(=O)=O)ccc2O[C@@H]1CN(C)C | 1
C[C@@H]1CN([C@H](C)CO)C(=O)c2cccc(NC(=O)Nc3ccccc3)c2O[C@@H]1CN(C)C(=O)Nc1ccc(F)cc1 | 8
CO[C@@H]1CN(C)C(=O)c2ccc(NC(=O)c3ccccc3F)cc2OC[C@H](C)N(C(=O)c2ccccc2F)C[C@@H]1C | 5
C[C@@H]1CN([C@H](C)CO)C(=O)c2cccc(NC(=O)c3nc4ccccc4s3)c2O[C@@H]1CN(C)C(=O)Nc1ccc(C(F)(F)F)cc1 | 23
O=C(Nc1ccccc1F)N1CCCCN2[C@H](CO)[C@@H](c3ccc(C#Cc4ccccc4)cc3)[C@@H]2C1 | 21
COc1cccc(-c2ccc3c(c2)[C@H]2[C@H](CCN2C(=O)c2ccc(F)cc2)[C@@H](CO)N3)c1 | 2
OC[C@@H]1[C@@H](c2ccc(-c3cccnc3)cc2)[C@@H]2CN(CC3CC3)CCCCN12 | -11
CCCNC(=O)N1[C@H](CO)[C@H]2c3ccccc3N(C(=O)NC(C)C)C[C@H]21 | 21
O=C(c1ccc(F)cc1)N1CC[C@@H]2[C@H]1c1cc(C#Cc3ccc(F)cc3)ccc1N[C@@H]2CO | -22
COc1ccc(S(=O)(=O)N2CCCCN3[C@@H](CO)[C@H](c4ccc(C#CC(C)C)cc4)[C@@H]3C2)cc1 | 29
O=C(C[C@H]1CC[C@H]2[C@@H](COC[C@@H](O)CN2Cc2ccc3c(c2)OCO3)O1)N1CCOCC1 | -9
O=C(C1CCCC1)N1CCCCN2[C@H](C1)[C@@H](c1ccc(C#CC3CC3)cc1)[C@@H]2CO | 14
O=C(CN1CCOCC1)N1CCCCN2[C@@H](CO)[C@@H](c3ccc(C#Cc4ccccc4F)cc3)[C@@H]2C1 | 11
COc1ccc(NC(=O)N2C[C@H](O)COC[C@H]3O[C@H](CC(=O)NC4Cc5ccccc5C4)CC[C@@H]32)cc1 | 10
CC(=O)N1[C@H](CO)[C@@H](c2ccc(-c3cccc(F)c3)cc2)[C@@H]1CNC(=O)C1CC1 | -9

Further results.
smiles | Yeast UUG start
COc1ccc(CN(C)C[C@@H]2Oc3ccc(NS(=O)(=O)c4cn(C)cn4)cc3C(=O)N([C@@H](C)CO)C[C@@H]2C)cc1 | -2
C[C@@H]1CN([C@H](C)CO)C(=O)c2cc(NS(=O)(=O)c3cccs3)ccc2O[C@@H]1CN(C)C(=O)Nc1cccc2ccccc12 | 8
COCC(=O)Nc1ccc2c(c1)OC[C@H](C)N(Cc1ccccc1)C[C@@H](C)[C@@H](OC)CN(C)C2=O | 7
C[C@H]1CN([C@@H](C)CO)C(=O)c2cccc(NC(=O)Nc3ccc4c(c3)OCO4)c2O[C@@H]1CN(C)C(=O)NC1CCCCC1 | 2
C[C@@H]1CN([C@H](C)CO)C(=O)c2cc(NS(=O)(=O)c3cccs3)ccc2O[C@@H]1CN(C)Cc1ccc2c(c1)OCO2 | -5
CCC(=O)N1[C@@H](CO)[C@@H]2c3ccccc3N(S(=O)(=O)c3ccccc3C)C[C@@H]21 | 0
O=C(Nc1cccc(F)c1)N1CCCCN2[C@H](CO)[C@H](c3ccc(C#Cc4ccccc4)cc3)[C@H]2C1 | -9
C[C@@H]1CN([C@@H](C)CO)C(=O)c2cc(NC(=O)c3ccncc3)ccc2O[C@@H]1CN(C)C(=O)Nc1ccccc1 | -11
OC[C@@H]1[C@@H](c2ccc(C#Cc3cccnc3)cc2)[C@@H]2CN(Cc3ccccc3F)CCCCN12 | 17
C[C@@H]1CN([C@@H](C)CO)C(=O)c2cccc(NC(=O)C3CCCCC3)c2O[C@H]1CN(C)S(=O)(=O)c1ccccc1 | 10
CS(=O)(=O)N1CCCCN2[C@@H](CO)[C@@H](c3ccc(Br)cc3)[C@@H]2C1 | 43
COc1ccc(NC(=O)N2C[C@H](O)COC[C@H]3O[C@H](CC(=O)NCc4ccccc4OC)CC[C@@H]32)cc1 | 1
CN1C(=O)c2cc(NC(=O)c3cccc(C(F)(F)F)c3)ccc2OC[C@@H]2O[C@H](CC(=O)NCCN3CCCC3)CC[C@H]21 | 20
CC(C)(O)C#Cc1ccc([C@H]2[C@H](CO)N3CCCCN(C(=O)c4cccc(F)c4)C[C@@H]23)cc1 | 4
CNC[C@@H]1Oc2ccc(NC(=O)NC3CCCCC3)cc2C(=O)N([C@@H](C)CO)C[C@@H]1C | -12
Cc1ccc(S(=O)(=O)Nc2cccc3c2O[C@@H](CN(C)Cc2ccc(C(F)(F)F)cc2)[C@H](C)CN([C@@H](C)CO)C3=O)cc1 | 19
CCC(=O)NC[C@@H]1[C@@H](c2ccccc2)[C@@H](CO)N1C(=O)C1CCC1 | 1
COCC(=O)N1[C@@H](CO)[C@@H]2c3ccccc3NC[C@@H]21 | -18
C[C@@H]1CN([C@H](C)CO)C(=O)c2cccc(NC(=O)Nc3ccccc3)c2O[C@H]1CN(C)S(=O)(=O)c1ccc(F)cc1 | 25
COc1cccc(CN2CCCCN3[C@H](CO)[C@@H](c4ccc(C#Cc5cccnc5)cc4)[C@@H]3C2)c1 | 4
CCS(=O)(=O)Nc1ccc2c(c1)C(=O)N(C)C[C@H](OC)[C@H](C)CN(C(=O)C1CC1)[C@@H](C)CO2 | -13
O=C(C[C@@H]1CC[C@H]2[C@@H](COC[C@H](O)CN2C(=O)c2ccccc2F)O1)NCc1ccc(F)cc1 | 11
CO[C@H]1CN(C)C(=O)c2cc(NC(=O)c3ccccc3F)ccc2OC[C@H](C)N(C(=O)c2ccccc2F)C[C@H]1C | 19
C[C@@H]1CN([C@@H](C)CO)C(=O)c2cccc(NC(=O)c3ccc(-c4nccs4)cc3)c2O[C@@H]1CN(C)Cc1ccc2c(c1)OCO2 | -9
Cc1ccccc1S(=O)(=O)N1C[C@H](O)COC[C@H]2O[C@@H](CC(=O)N3CCOCC3)CC[C@@H]21 | 28

5 compounds picked at random from the list so far, as already listed:
smiles | Yeast UUG start
O=C(C[C@H]1CC[C@H]2[C@@H](COC[C@@H](O)CN2Cc2ccc3c(c2)OCO3)O1)N1CCOCC1 | -9
O=C(c1ccc(F)cc1)N1CCCCN2[C@H](CO)[C@@H](c3ccc(C#CC4(O)CCCC4)cc3)[C@H]2C1 | -9
COc1cccc(C(=O)Nc2ccc3c(c2)C(=O)N(C)C[C@@H](OC)[C@@H](C)CN(C(=O)C2CCCC2)[C@@H](C)CO3)c1 | 8
O=C(c1ccc(F)cc1)N1CC[C@@H]2[C@H]1c1cc(C#Cc3ccc(F)cc3)ccc1N[C@@H]2CO | -22
COc1cccc(CN2CCCCN3[C@H](CO)[C@@H](c4ccc(C#Cc5cccnc5)cc4)[C@@H]3C2)c1 | 4
